# High-throughput results as filed in PubChem.
# Autofluor counter = counter-screen for toxin protease inhibitors: compound fluorescence | AID 624483 | fluorescence intensity (test concentration not listed) | 360,000 tested, 3.1% active | compound autofluorescence counterscreen, microsphere flow cytometry; stronger effect = higher value;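 active = at least 3 SD above the mean of all compounds, about 16000 in these data; inconclusive = too few beads counted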;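 also: 100 nL of 1 mM stock went into each well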
# Mtb hypoxia rep = Mtb hypoxia fluorescent reporter inhibition | M. tuberculosis hypoxia-regulated fluorescent reporter, fluorescence | fluorescence inhibition, % (concentration not given with the values) | 300,000 tested, 0.1% active | AID 1159583;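 active = 35 to 45% if threefold the growth effect, above 45% if 1.5-fold the growth effect; inactive = the rest, general growth blockers included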;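 also: wells of about 50 µL received 100 nL stock; 0% = vehicle wells and 100% = reference inhibitor wells; whole bacteria with a GFP reporter of the hypoxia response; strong numbers were not always called active; many hits fall short of the cut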
# BJeLR lethal = kills HRASV12-expressing BJeLR cells; BJeLR (HRASV12) viability, CellTiter-Glo ATP luminescence, 48 h; reference of the scale not given here; 300,000 tested, 0.17% active; inhibition, % (no concentration beside the values);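 active = replicate mean above 50%; inconclusive = above 50% but judged a plate artefact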;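 also: 50 nL library stock added to about 25 µL; numbers are from one replicate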
# RN4220 kill = kills Staphylococcus aureus RN4220. 330,000 tested, 0.33% active. S. aureus RN4220 growth, OD600, 16 h. inhibition, % (test concentration not listed);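 active = z-score of -3 or lower and OD600 up to 0.18 on both plates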;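 also: plate controls were untreated cells for no effect and reference antibiotic for full effect; stock transfer was 100 nL into about 80 µL; one replicate is shown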
# PrP UTR inh = suppresses PrP 5' UTR mRNA reporter expression; cell-based PrP 5' UTR mRNA reporter, plate reader; AID 488862; 340,000 tested, 0.35% active; inhibition, % (test concentration not listed);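 active = every replicate at 50% or more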;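 also: 0 = median of the neutral control wells; tested in H4 reporter cells; numbers are from one replicate; inactives centre near -14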
# ugtP null kill = growth inhibition of S. aureus ugtP deletion strain; S. aureus RN4220 ugtP deletion, OD600 growth, 16 h; some inactives read as strong as hits; growth inhibition, % (no concentration beside the values); 330,000 tested, 0.54% active; AID 1259309;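 active = z-score under -3 and OD600 up to 0.15 on both plates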;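 also: plate controls were untreated wells for no effect and antibiotic for full effect; wells of about 80 µL received 100 nL stock; the first replicate is given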
# Mtb hypoxia rep growth = second read-out of Mtb hypoxia rep, no call of its own (marks repeat the call); growth inhibition, %; measured here: M. tuberculosis growth (absorbance);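 0% = vehicle and 100% = reference antibiotic; read after six days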
# * = called active by the depositor; ? = inconclusive; . = no result given. This is a random part of the collection (roughly 4.1% active in at least one column).
molecule	Autofluor counter	Mtb hypoxia rep	Mtb hypoxia rep growth	BJeLR lethal	RN4220 kill	PrP UTR inh	ugtP null kill
Cc1ccc(S(=O)(=O)CCC(=O)OCC(=O)N2c3ccccc3CC2C)cc1 (configuration not stated)	4725	-6	-1	-4	1.2	-27	6
NC(=O)CNC(=O)[C@@H]1CC2(CC(c3cccc(Br)c3)=NO2)CN1C(=O)c1ccc(Br)cc1 (some centres not stated)	4095	4	8	-6	-18	-16	2
Cc1cccc(N(CC(=O)NCC2CCCO2)C(=O)CNS(=O)(=O)c2ccc(Cl)cc2)c1 (configuration not stated)	6048	6	1	-17	1.0	-30	8
OCCNc1c2ccccc2nc2ccccc12	4644	-4	5	-5	3.8	-33	7
CN(Cc1c(C(=O)NN=Cc2ccc(O)cc2)nnn1-c1nonc1N)C1CCCCC1	.	4	-1	.	3.5	.	-2
CC1(C)C=C(c2ccc(C=O)s2)CC(C)(C)N1C=O	2158	6	1	-7	12	-8	7
CCn1c(SCC(=O)Nc2ccc(S(=O)(=O)Nc3onc(C)c3C)cc2)nnc1-c1ccccc1	9440	3	4	-9	3.0	3	2
Cc1cccc(C(=O)NCCC(=O)Nc2ccc(C#N)cc2)c1	2918	1	-5	5	0.8	-5	6
N=C(N)SCCN	5631	0	-3	.	3.6	-12	-4
CC(=O)Nc1ccc(S(=O)(=O)N2CCSC2c2ccc(C)cc2)cc1 (configuration not stated)	4241	.	.	7	1.8	-12	-5
COC(=O)c1[nH]c2cccc(C)c2c1NC(=O)CN1CCN(c2ccccc2OC)CC1	2788	.	.	0	1.5	-16	-2
CCNc1ccc(Br)cc(C(=O)/C=C/c2ccccc2Cl)c1=O	16998*	11	7	-10	-0.5	-5	16
O=C(Cc1c[nH]c2ccccc12)N/N=C/c1ccc(F)cc1	8857	.	.	-14	.	-21	.
O=C(c1cc(-c2ccccc2Cl)nc2ccccc12)N1CCOCC1	6949	2	-32	1	-6.0	-12	-8
CC1CCCN(C(=O)COC(=O)CNC(=O)c2ccc(Br)cc2)C1 (configuration not stated)	5060	5	-3	0	1.5	-19	2
CCn1c2ccccc2c2cc(NC(=O)C(=O)NCC3CCCO3)ccc21 (configuration not stated)	4742	13	9	9	1.6	5	5
CCOC(=O)C1(Cc2ccccc2C(F)(F)F)CCN(C2CCN(C(C)=O)CC2)CC1	2449	10	3	3	5.3	-19	7
COc1ccccc1NC(=O)NCCC1=CCCCC1	2311	0	3	9	2.5	-19	0
O=C(C1CCN(c2nnc(-n3cccc3)s2)CC1)N1CCCCC1	5228	25	30	-1	0.2	-25	3
Cn1cc(CN2CCC(C(=O)Nc3ccc(Oc4ccccc4F)cc3)CC2)cn1	4672	.	.	4	.	4	.
COc1ccc(-c2oc(N=CN3CCOCC3)c(C#N)c2-c2ccc(OC)cc2)cc1	.	12	13	.	-5.0	.	-6
COc1ccc(C(=O)N2CCC(C(=O)O)CC2)c2ccccc12	4094	-4	-5	-5	-4.6	-30	3
O=C(NCC(c1cccs1)N1CCOCC1)c1cccc(S(=O)(=O)Nc2ccc(F)cc2)c1 (configuration not stated)	3755	6	13	.	3.6	-8	0
O=C(COc1ccccc1)N1CCN(c2ccccc2)CC1	2519	.	.	0	7.5	-2	-10
COCCNC(=O)c1ccc2nc(Cc3ccc(OC)c(OC)c3)oc2c1	4158	15	4	0	5.6	-35	6
CCCN1C(=O)/C(=C2\SC(N3CCCCC3)=NC2=O)c2ccccc21	3963	.	.	-20	-1.2	-65	1
CNC(=O)COC(=O)c1ccc(Cl)c(S(N)(=O)=O)c1	5655	10	-7	1	4.0	-28	-2
COc1ccc(N(C(=O)c2cnccn2)C(C(=O)NC2CCCCC2)c2ccccc2)cc1 (configuration not stated)	4934	-8	-3	-7	-4.4	6	-4
Cc1onc(-c2ccccc2)c1C1=N/C(=C\c2ccccc2F)C(=O)O1	2101	1	5	-7	8.2	-1	5
Cc1nn(-c2ccccc2)c(Cl)c1C=NNC(=O)c1ccc(NS(=O)(=O)c2cccs2)cc1	.	-2	5	.	0.1	.	7
O=[N+]([O-])c1ccc(/C=N/Nc2ccnc3cc(Cl)ccc23)o1	4447	.	.	5	.	-20	.
O=C(c1ccco1)N1CCN(C(c2ccccc2F)c2nnnn2CC2CCCO2)CC1 (configuration not stated)	3654	.	.	.	10	-20	1
O=C(CSc1nnc(-c2ccccc2O)o1)Oc1ccc(OCc2ccccc2)cc1	6797	-1	-5	-5	3.1	-21	9
Cc1cc(N2CCOCC2)nc(SCC(=O)c2ccccc2)n1	7269	1	5	-5	3.3	-14	2
COc1ccc(OCC(O)CN2CCN(c3ccccc3)CC2)cc1 (configuration not stated)	4290	23	3	2	4.9	-27	10
CCN1C(=O)N[C@@H](CCc2ccccc2)[C@@H](C(=O)OC)[C@H]1C	3550	.	.	-10	.	-13	.
CC1(C)Cc2c(cnn2-c2ccccc2)C(=O)/C1=N\NC(=O)c1ccncc1	3017	-7	-2	11	1.4	3	2
Cc1cc(C(=O)N2CCC(Cc3ccccc3)CC2)ccc1[N+](=O)[O-]	8923	11	13	0	-1.6	-19	-1
COc1ccc(S(=O)(=O)N2CCN(c3ccccn3)CC2)c(OC)c1	3499	13	7	-5	3.6	-15	3
O=C(c1cc2cc(F)ccc2[nH]1)N1CCN(C(=O)c2ccco2)CC1	5311	1	-2	0	0.9	-33	-3
Cc1ccccc1-n1c(-c2ccc3ccccc3n2)n[nH]c1=S	5845	25	33	-3	-4.2	0	2
Cc1oc(-c2ccccc2)nc1CS(=O)CC(=O)N1CCc2ccccc2C1 (configuration not stated)	5596	.	.	-5	2.9	-3	3
CCOC(=O)/C(N=Nc1c(C)n(C)n(-c2ccccc2)c1=O)=C(/O)c1ccccc1	2054	.	.	-2	.	-6	.
COc1ccc(-c2[nH]nc3c2C(c2ccoc2)C(C#N)=C(N)O3)cc1 (configuration not stated)	2491	8	6	0	-0.7	-21	2
C/C(=N\NS(=O)(=O)c1ccc(Br)cc1)c1ccncc1	5741	.	.	-2	.	-10	.
Cc1ccccc1C(=O)N=c1ccn(-c2nc3ccccc3nc2NS(=O)(=O)c2ccc(F)cc2)cc1	5278	13	23	2	-1.3	-9	14
CCOc1ncccc1C(=O)Nc1cccc(C(=O)Nc2cccc(S(=O)(=O)CCO)c2)c1	8565	-11	-5	7	12	-6	8
COc1cccc(CC(=O)Nc2cc(S(=O)(=O)N3CCOCC3)ccc2OC)c1	?	4	3	.	5.4	-6	7
Cc1ccccc1CN1CCCN(Cc2ccc(Cl)cc2)S1(=O)=O	2991	-3	-8	3	-0.6	-2	4
Cc1ccc(-c2nc3ncccc3o2)cc1NC(=O)COc1ccccc1	4223	9	3	1	7.8	-14	-2

# New compounds follow
molecule	Autofluor counter	Mtb hypoxia rep	Mtb hypoxia rep growth	BJeLR lethal	RN4220 kill	PrP UTR inh	ugtP null kill
CC(=NOCC(=O)Nc1ccc(Br)cc1)c1cccs1	.	9	12	.	-7.2	.	11
S=C(NN=C1CCc2ccccc21)NC1CCCCC1	.	13	1	.	1.8	.	10
COCCNC(=O)c1ccccc1NC(=O)CSc1ccc(C)cc1	3246	17	9	2	2.0	-2	-2
Cc1ccc2nc(SCC(=O)NCc3ccco3)c(C#N)cc2c1	2958	-1	-4	3	-5.5	-45	-11
CC(Sc1nnc(-c2ccc(Cl)cc2Cl)n1Cc1ccccc1)C(=O)Nc1nccs1 (configuration not stated)	2644	.	.	6	4.6	-25	-10
COC(=O)Cc1cc(=O)n(-c2nc3ccccc3s2)[nH]1	6925	0	6	0	28	-14	1
O=C(CSc1cn[nH]n1)Nc1ccccc1C(=O)O	5632	18	2	9	4.1	-14	3
CCOC(=O)Cn1nnnc1CN(Cc1cccs1)Cc1cc2cc(C)ccc2[nH]c1=O	16529*	2	4	-6	4.4	-6	4
COc1ccc(/C=N/NC(=O)CN(C2=NS(=O)(=O)c3ccccc32)c2ccccc2)cc1OC	2517	.	.	0	.	-4	.
Cc1ccccc1NC(=O)Cc1nc(COC(=O)/C=C/c2ccccc2)cs1	?	-6	3	-10	2.0	-13	0
CC(C)(C)c1ccc(NC(=O)COC(=O)C2(C)CC2(Cl)Cl)cc1 (configuration not stated)	4643	12	6	5	-8.8	-73	7
O=C(NCCCNc1ccc(C(F)(F)F)cc1[N+](=O)[O-])c1ccc(F)cc1	2513	6	9	24	2.4	-14	-14
Cn1ccnc1SCC(=O)Nc1cccc(O)c1	17009*	12	-8	4	2.7	-12	3
Nc1nnc(SCC(=O)Nc2cccnc2Cl)s1	4906	2	1	-1	5.3	-9	6
Cc1ccc(N2C(=O)C3CCC(c4ccccc4)CC3C2=O)cc1 (configuration not stated)	1951	7	6	-3	3.4	-19	3
COc1ccc(NC(=O)CC2C(=O)N(c3ccc(OC)cc3)C(=O)N2CCN2CCN(C)CC2)cc1 (configuration not stated)	10871	-3	5	5	4.3	-8	6
NS(=O)(=O)c1ccc(NC(=O)COc2ccc(C(=O)c3ccc(F)cc3)cc2)cc1	4578	-9	3	7	-1.5	-5	-10
O=C(Cn1ncc2c3ccccc3n(Cc3ccccc3)c2c1=O)NCCN1CCOCC1	5475	11	7	-3	2.0	-18	0
COc1ccc(NC(=O)Cn2nnc(C(=O)NCc3ccccc3OC)c2N)cc1Cl	?	1	1	4	-0.8	-22	-9
Cc1cc2nc(SCCOC(=O)Nc3cccc(Cl)c3)nc(C)c2cc1C	2886	10	6	.	-1.9	1	-20
COc1cccc(NC(=O)NCc2ccccn2)c1	.	-6	-12	2	1.2	-32	9
COc1cccc(/C=N/Nc2ccc([N+](=O)[O-])cn2)c1O	3826	.	.	34	.	58*	.
CC(=O)Nc1ccc(-c2nc3ccccc3o2)cc1	3624	12	10	-8	-1.1	-72	-3
COc1ccc2c(c1)CCC2=NOC(=O)c1ccccc1OC	.	-2	1	.	4.6	.	0
O=C1CCCCC1=CNCc1ccccc1	.	2	7	.	8.4	.	-2
COCCNC(=O)CSc1cc(-c2ccccc2)c2ccc(OC)cc2n1	4466	-1	13	1	-8.3	7	-8
CCNc1nc(NCC)n2c(SC(C(=O)Nc3cc(C)ccc3C)c3ccccc3)nnc2n1 (configuration not stated)	1986	-1	8	-1	4.8	1	7
O=C(NCCc1ccc(Cl)cc1)c1cccc(N2CCCC2=O)c1	4430	13	1	-1	2.1	-44	-4
Cc1ccc(S(=O)(=O)N(Cc2ccccc2Cl)C(=O)N2CCN(C)CC2)cc1	4392	0	-5	3	4.2	-39	10
O=C(Nc1cccnc1)c1cccnc1	11676	5	4	1	4.7	-5	14
COc1ccc(OC)c(N(CC(=O)NCc2ccncc2)S(C)(=O)=O)c1	10549	8	10	16	11	-30	-2
O=C(NC1CCSC1=O)c1ccc(Oc2ccc(F)cc2)nc1 (configuration not stated)	2740	.	.	0	-4.3	-15	-8
COC(=O)C1C(C(=O)O)C2(Cl)C(Cl)=C(Cl)C1(Cl)C2(Cl)Cl (configuration not stated)	4033	20	10	.	7.6	-11	6

# Entries of single compounds, quoted from the list. Order of screens: Autofluor counter	Mtb hypoxia rep	Mtb hypoxia rep growth	BJeLR lethal	RN4220 kill	PrP UTR inh	ugtP null kill
# COC(=O)C1C(C(=O)O)C2(Cl)C(Cl)=C(Cl)C1(Cl)C2(Cl)Cl (configuration not stated) across the screens: 4033	20	10	.	7.6	-11	6
# COc1ccc(OC)c(N(CC(=O)NCc2ccncc2)S(C)(=O)=O)c1 across the screens: 10549	8	10	16	11	-30	-2
# O=C(NCCc1ccc(Cl)cc1)c1cccc(N2CCCC2=O)c1 across the screens: 4430	13	1	-1	2.1	-44	-4
# COCCNC(=O)CSc1cc(-c2ccccc2)c2ccc(OC)cc2n1 across the screens: 4466	-1	13	1	-8.3	7	-8
# O=C(NC1CCSC1=O)c1ccc(Oc2ccc(F)cc2)nc1 (configuration not stated) across the screens: 2740	.	.	0	-4.3	-15	-8
